# ClpP mod: qHTS Assay for Activators of ClpP; ATP-dependent Clp protease proteolytic subunit (Bacillus subtilis (strain 168)), P80244; purified B. subtilis ClpP, FRET peptide cleavage, 20 min; Potency, µM (highest dose often 57.5 µM), without a hit: at the top dose activity change, negative = active; 340,000 tested, 1.9% active; AID 651965, 2013; active = well fitted falling curve with a large enough effect; inconclusive = small, poorly fitted or top-dose-only effect; inactive = no such curve, though single readings can be large or run the other way; note: potency is the fitted concentration of half-maximal effect; the source files actives as falling curves though it sought activators and does not explain the sign; nearly all actives have a fitted effect of over 65% in size; many hits overshoot -100%
# Target sequence (P80244 whole entry, looked up): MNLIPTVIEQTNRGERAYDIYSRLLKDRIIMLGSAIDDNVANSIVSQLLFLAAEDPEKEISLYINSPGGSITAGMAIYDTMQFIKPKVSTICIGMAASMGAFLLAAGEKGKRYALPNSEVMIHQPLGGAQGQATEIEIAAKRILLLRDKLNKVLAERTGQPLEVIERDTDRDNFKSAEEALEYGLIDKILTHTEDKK
#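 Buffer: 100 mM Tris/HCl pH8, 100 mM KCl, 0.05% low protease BSA, 2.5% glycerol, 0.01% Tween-20. ClpP 10 microg/mL final; 20 min RT; delta FRET normalized to ADEP and DMSO controls.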
# D2 potentiator: human D2 receptor positive allosteric modulation; P14416; DiscoveRx D2 beta-arrestin cells, luminescence, 90 min; 100% = 57 uM dopamine signal; potentiation, % (test concentration not listed); 360,000 tested, 0.23% active; AID 624464; active = potentiation of 50% or more; inconclusive = 30% to 50%; inactive = 30% or less;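 note: compound concentration not given in the record; tested on top of an EC20 dose of dopamine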
#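 PathHunter beta-arrestin assay in DiscoveRx D2 cells. Compounds were added with an EC20 of dopamine (50 nM final) for 90 min at 37 deg C. Luminescence was read 1 h after detection reagent, with 57 uM dopamine as the EC100 control.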
# TRPV1 potentiator: enhances activation of the human vanilloid receptor TRPV1 | potentiation, % at 8.33 µM | 320,000 tested, 0.02% active | TRPV1-expressing cells, Fluo-8 calcium influx, capsaicin EC20 potentiation; host cell line not named in the record; control for the full effect not named in the record | Q8NER1; active means potentiation above 80%; inconclusive means 30% to 80%; inactive means below 30%; note: 0% is about no effect
# Target sequence (Q8NER1 whole entry, looked up): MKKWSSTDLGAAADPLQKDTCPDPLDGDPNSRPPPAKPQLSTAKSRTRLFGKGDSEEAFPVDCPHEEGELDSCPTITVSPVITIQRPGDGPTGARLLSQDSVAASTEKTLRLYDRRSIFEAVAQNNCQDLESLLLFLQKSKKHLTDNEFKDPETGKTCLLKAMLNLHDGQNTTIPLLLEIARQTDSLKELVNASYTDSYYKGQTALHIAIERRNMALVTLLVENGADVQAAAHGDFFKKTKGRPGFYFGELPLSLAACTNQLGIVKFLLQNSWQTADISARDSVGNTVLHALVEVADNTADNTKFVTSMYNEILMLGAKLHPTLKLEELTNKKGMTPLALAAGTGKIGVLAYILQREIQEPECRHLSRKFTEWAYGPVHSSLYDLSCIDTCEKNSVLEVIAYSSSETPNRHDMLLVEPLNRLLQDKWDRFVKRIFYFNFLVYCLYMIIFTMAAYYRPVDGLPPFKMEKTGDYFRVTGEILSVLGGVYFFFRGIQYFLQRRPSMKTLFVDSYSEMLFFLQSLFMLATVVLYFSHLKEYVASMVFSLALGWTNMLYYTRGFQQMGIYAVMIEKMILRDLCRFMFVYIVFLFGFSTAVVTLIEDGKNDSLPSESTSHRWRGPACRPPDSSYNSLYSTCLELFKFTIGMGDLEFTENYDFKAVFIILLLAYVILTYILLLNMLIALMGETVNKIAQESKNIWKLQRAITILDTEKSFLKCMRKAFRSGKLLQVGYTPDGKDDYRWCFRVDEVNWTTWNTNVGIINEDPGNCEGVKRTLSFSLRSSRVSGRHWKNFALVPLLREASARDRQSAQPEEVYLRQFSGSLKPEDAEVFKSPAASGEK
#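 Cells expressing TRPV1 were dye-loaded with Fluo-8 and read kinetically: 10 s baseline, 3 min after compound (agonist portion), then 2 min after EC20 capsaicin (allosteric enhancer portion). Calcium-bound dye fluorescence at 480/520 nm.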
# gsp agonist: gsp mutant agonism. gsp mutant cells, cAMP HTRF, 30 min; control for the full effect not named in the record. Potency, µM (doses to about 76.9 µM), inactives show at the top dose activation (cAMP increase), actives largely listed as activators. 340,000 tested, 0.13% active. AID 624287; active = well fitted activation curve with a large enough effect; inconclusive = small, poorly fitted or top-dose-only effect, or another doubt; inactive = no such curve, though single readings can be large or run the other way; cell line not stated here;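 note: phosphodiesterase inhibitor Ro 20-1724 added with compounds to block cAMP breakdown; potency is the fitted concentration of half-maximal effect; nearly all actives have a fitted effect of over 60% in size; about a fifth of the inactives were tested at one dose only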
#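 Cells in DMEM/10% FBS with G418 were pretreated with compounds in DMSO plus […] (300 uM stock) for 30 min at 37C. cAMP was measured by HTRF (cAMP-d2 plus anti-cAMP antibody-K) after 30 min at room temperature.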
# Sfp PPTase inh: blocks B. subtilis Sfp PPTase activity. Q9F4F7. Biochemical Sfp PPTase activity, qHTS. Potency, µM, without a hit: max response, negative = inhibition, actives largely listed as inhibitors. AID 1490. 310,000 tested, 3.5% active; active = well fitted inhibition curve with a large enough effect; inconclusive = small, poorly fitted or top-dose-only effect, or another doubt; inactive = no such curve, though single readings can be large or run the other way;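 note: the enzyme is Sfp with the accession as filed and its product quenches rhodamine fluorescence; potency is the fitted concentration of half-maximal effect; 0% = enzyme reaction without inhibitor and -100% = no enzyme wells; top concentration of the series not given in the record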
#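 Fluorescence-quenching assay with 15 nM Sfp, 5 uM rhodamine-CoA and 12.5 uM BHQ-2-labelled ybbR peptide in pH 7.6 Hepes/MgCl2 buffer. Enzyme was pre-incubated with compound for 15 min at room temperature. Rate was taken from the 30-min fluorescence change (525/598 nm).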
# gsp antagonist: antagonists of gsp mutant (McCune-Albright syndrome); gsp-mutant cells, cAMP HTRF, 30 min; control for the full effect not named in the record; Potency, µM (doses to about 76.9 µM), without a hit: at the top dose activity change, negative = inhibition, most hits filed as inhibitors; 340,000 tested, 0.4% active; AID 624288; active = falling curve of any shape with a large fitted effect; inconclusive = falling curve, mostly with a smaller effect; inactive = flat or rising curve; cell line not stated here;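 note: intracellular cAMP measured with PDE inhibitor Ro 20-1724 present during compound exposure; potency is the fitted concentration of half-maximal effect; % is set by controls: 0 for no effect and ±100 for the full control effect; nearly all actives have a fitted effect of over 65% in size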
#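 HTRF cAMP measurement after 30 min RT detection following 30 min, 37C compound treatment alongside […] (added as 300 uM solution) in G418-selected cells seeded at 2000/well and grown 16–24 h.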
# Menin-MLL FL inh: inhibitors of human menin-MLL interaction, wild-type MLL peptide; Fluorescence polarization, fluorescein-MLL peptide displacement from menin; FP activity change, % at 61.4 µM; 290,000 tested, under 10 active; AID 1766; inconclusive = falling polarisation curve, or a change in total fluorescence; inactive = total fluorescence flat and polarisation flat or rising; no compound was filed as active; the % refers to the polarisation; negative = inhibition;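 note: % of control where 0% means no effect; inhibitors lower the polarisation; unlabelled MLL peptide was the positive control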
# * hit, by the source's call; u = inconclusive; x = no result given; [ ] = remark or other dose. Not a hit list (roughly 5.1% active in at least one column).
structure	ClpP mod	D2 potentiator	TRPV1 potentiator	gsp agonist	Sfp PPTase inh	gsp antagonist	Menin-MLL FL inh
Cc1nn(CCC#N)c(NC(=O)c2ccc(Cl)cc2)c1P(=O)(Nc1ccc([N+](=O)[O-])cc1)N1CCOCC1 (stereo unspecified)	-1.9%	-2.3	5.8	8.7%	-2.0%	3.3%	1.1
Cc1cc2ncn(C(=O)c3c(-c4ccccc4Cl)noc3C)c2cc1C	0.4%	-22.2	2.6	-27.1%	-0.8%	u	3.5
CCCCC(CC)COC(=O)C(C#N)=C(c1ccccc1)c1ccccc1 (stereo unspecified)	0.4%	-25.7	-7.7	x	9.8%	-19.2%	0.0
COCCNC(=O)CN(C(=O)c1ccc(N2CCCC2)nc1)c1ccccc1	-7.0%	-23.0	2.1	-35.7%	13.0%	-2.8%	-1.6
CN(C)S(=O)(=O)Oc1ccc(C(=O)Nc2ccc([N+](=O)[O-])cc2)cc1	1.0%	-2.7	-11.6	7.0%	2.2%	3.6%	-0.6
CCCC(=O)c1ccc(N2CCCC2)c(F)c1	-5.1%	-2.9	-11.8	2.2%	6.2%	-33.4%	-1.1
O=C(CCN1C(=O)/C(=C/c2ccco2)SC1=S)Nc1ccc(C(=O)O)c(O)c1	x	-2.1	4.0	12.4%	56.2µM*	-1.1%	u
CCOC(=O)c1cnc2cc(C)nn2c1C	-0.8%	-15.0	5.8	12.4%	13.9%	7.3%	1.4
C#CCOCCOCCOCCNc1nc(N2CCN(C(=O)CCCCCCCCCCNC(=O)[C@@H](CCSC)n3cc(CCO)nn3)CC2)nc(N2CCN(C(=O)CCCCCCCCCCNC(=O)[C@H](CO)n3cc(CCCCCN)nn3)CC2)n1	-0.6%	-7.5	-3.5	x	x	-2.1%	x
CCC1CCCCN1S(=O)(=O)c1ccccc1 (stereo unspecified)	x	1.0	-2.2	-1.3%	0.3%	2.4%	-0.7
Cc1onc(-c2c(Cl)cccc2Cl)c1NC(=O)NNc1ccccn1	0.0%	-13.7	7.8	-0.4%	-17.8%	4.8%	-0.7
CCN1CCN(P2(=O)C=C(c3ccccc3)OC(c3ccccc3)=C2)CC1	-2.4%	-26.1	9.6	-0.8%	-9.6%	-0.8%	-2.2
COc1ccc(/C=C(/NC(=O)c2ccco2)C(=O)N2CCOCC2)cc1	0.1%	-16.4	26.9	0.8%	12.6%	6.5%	x
CCOc1ccccc1C1CC(=O)Nc2cc3c(cc21)OCO3 (stereo unspecified)	0.6%	-9.5	-6.0	-27.6%	21.3%	10.0%	-2.9
O=C(c1ccc(-n2c(SCc3cc(F)ccc3F)nc3ccccc3c2=O)cc1)N1CCOCC1	-4.0%	-4.5	-10.4	-54.2%[inhibitor]	u	-2.5%	1.2
O=C(NCC1CCCO1)C(c1ccc(F)cc1)N(C(=O)Cn1nnc(-c2ccc(F)cc2)n1)c1cccc(O)c1 (stereo unspecified)	x	28.5	7.6	-2.8%[15.4 µM]	6.9%	-17.4%	-0.2
CC(/C=N/NC(=O)Cn1nccc1C)=C\c1ccc(C(C)C)cc1	0.2%	-0.2	-15.2	3.2%[15.4 µM]	-2.5%	-11.6%	x
COC(=O)c1sccc1NC(=O)COc1cccc(C)c1	x	3.8	2.9	-4.9%	5.0%	-13.7%	1.5
CCOc1ccc(C(=O)N2CCN(CC(=O)N3CCCC3)CC2)cc1OCC	-2.9%	-3.0	-0.9	14.3%	x	8.6%	x
Cc1ccc(C)c2[nH]c(=O)c(CCNC(=O)c3cc4ccccc4o3)cc12	u	-4.4	25.0	32.9%	-4.7%	-14.7%	4.2
COc1ccccc1OCC(O)Cn1c(Br)nc2c1c(=O)[nH]c(=O)n2C (stereo unspecified)	-0.5%	12.8	-16.6	3.8%	19.2%	-0.7%	2.5
Cc1cc(NC(=O)CSCC(=O)Nc2cc(C(F)(F)F)ccc2N2CCOCC2)no1	-1.6%	-3.5	5.7	18.9%	x	1.9%	x
Cn1c(Cc2ccccc2)[n+](C)c2ccccc21	x	-9.9	1.3	6.1%[15.4 µM]	11.4%	-11.8%	-4.3
Cc1ccccc1CN1CCCC(C(=O)Nc2ccc(-c3ccn[nH]3)cc2)C1 (stereo unspecified)	-11.8%	-22.7	-2.3	-5.2%	15.7%	0.5%	x
c1ccc2c(c1)CNc1ccccc1C2	-3.6%	-12.2	-40.1	5.5%	1.7%	-6.6%	3.2
COc1ccc(-n2nc3c(c2NC(=O)c2ccc(S(=O)(=O)N4CCOCC4)cc2)CS(=O)C3)cc1 (stereo unspecified)	0.4%	-8.6	-10.4	-30.6%[inhibitor]	8.4%	5.1%	1.3
NC(=O)c1sc(=S)n2c1[nH]c(=O)c1sccc12	x	-2.6	2.0	18.3%	39.8µM*	-7.8%	u
CCCCC(=O)Nc1c(C)cc(C)cc1Cl	-1.8%	9.7	-10.1	1.1%	-8.1%	6.1%	2.6
CC1CCCCN1C(=O)C1CCCCN1S(=O)(=O)c1cccc([N+](=O)[O-])c1 (stereo unspecified)	1.7%	1.2	-10.6	u	8.7%	-13.3%	0.0
COc1ccc(OC)c(-n2c(-c3cccc(S(=O)(=O)N(C)C)c3)n[nH]c2=S)c1	x	-8.7	-2.1	u	-11.3%	-10.0%	-0.9
O=C(NC(=Nc1ccccc1)N1CCOCC1)Nc1ccccc1	1.3%	-12.2	6.3	0.7%	16.0%	2.4%	3.7
CCOc1ccc(S(=O)(=O)NC(C)C(=O)NCc2ccc3c(c2)OCO3)cc1 (stereo unspecified)	x	-2.2	1.9	-6.8%[15.4 µM]	1.9%	6.7%	3.1
O=C(O)c1ccc(NS(=O)(=O)c2ccc3c(c2)C(=O)c2cc(S(=O)(=O)Nc4ccc(C(=O)O)cc4)ccc2-3)cc1	x	-4.3	-7.0	-1.9%	13.1%	0.7%	3.3
CN(C)C(=O)CCc1ccc2c3c([nH]c2c1)[C@]1(C)[C@@H](C(=O)N2CCCCC2)C[C@H](CC(=O)NCC24CC5CC(CC(C5)C2)C4)C(=O)N1CC3	-1.1%	-3.4	x	x	x	u	x
CN1CCN(C(=S)Nc2ccccc2Cl)CC1	-9.1%	-18.4	-2.0	u	13.2%	11.5%	2.5
CC(NC(=O)c1ccco1)C(=O)OCc1cccc(C(F)(F)F)c1 (stereo unspecified)	-0.8%	-27.4	x	-6.4%	x	-6.6%	x
Cn1cnc2c(cnn2-c2ccccc2)c1=O	x	-4.8	0.7	-16.9%[15.4 µM]	6.0%	3.6%	-18.3
Cc1ccc(N(CC(=O)NC2CCCCC2)C(=O)CNC(=O)c2ccco2)cc1F	x	-9.0	18.8	42.8%[15.4 µM]	12.9%	6.1%	0.7
Cc1ccc(NC(=O)Cn2c(C)csc2=O)cc1	x	-1.5	15.0	15.6%[15.4 µM]	x	12.9%	x
COc1ccc(-n2c(-c3ccco3)n[nH]c2=S)cc1	u	4.0	2.1	-3.8%	-18.9%	3.9%	4.0
CCOc1ccccc1NC(=O)/C=C/C(N)=O	-0.6%	15.2	8.5	-2.3%	-17.0%	-4.6%	1.7
O=C1c2ccccc2C(=O)N1CCCc1nc(-c2ccncc2)no1	0.1%	-3.8	2.9	u	24.3%	-1.7%	-1.7
CCOc1ccccc1N1CCN(C(=O)c2c(-c3ccccc3Cl)noc2C)CC1	1.4%	-6.6	-7.7	7.1%	-3.7%	-9.4%	2.8
COc1ccc2c(c1)S/C(=C\C(=O)c1ccncc1)N2C	0.4%	0.5	5.2	-2.7%	8.91µM*	-29.4%	u
Cc1ccc(CN(Cc2ccco2)S(=O)(=O)c2ccc(S(=O)(=O)NCC3CCCO3)cc2)cc1 (stereo unspecified)	1.4%	-12.5	-5.5	15.7%	10.5%	-5.7%	-0.4
Cc1ccc(Nc2nnc(SCC(=O)c3cc4ccccc4o3)s2)cc1C	-3.0%	-15.6	-0.3	-2.0%	-8.8%	-6.2%	4.1
OCCC1CN(Cc2ccon2)CCN1Cc1ccc(F)c(F)c1 (stereo unspecified)	-1.3%	-6.8	-1.5	15.2%	-15.2%	7.8%	1.7
CN1C(=O)c2ccc(NC(=S)NC(=O)C(C)(C)C)cc2C1=O	6.5%	-8.9	4.3	u	35.5µM*	3.9%	1.9
O=C(O)c1ccc2c(c1Nc1ccccc1)C(=O)c1ccccc1C2=O	x	-5.2	14.9	u	-22.3%	u	-11.0
CN(C(=O)COc1ccc(S(=O)(=O)N2CCOCC2)cc1[N+](=O)[O-])C1CCS(=O)(=O)C1 (stereo unspecified)	x	-2.8	u	7.5%[15.4 µM]	5.7%	5.6%	-0.9
O=C(C1CCC(=O)N(C2CCCC2)C1)N1CCN(c2ccc(Cl)cc2)CC1 (stereo unspecified)	0.8%	-14.3	3.8	0.2%	2.1%	11.1%	1.5

# Single records (already shown).
# Cc1cc2ncn(C(=O)c3c(-c4ccccc4Cl)noc3C)c2cc1C is listed with ClpP mod = 0.4%; D2 potentiator = -22.2; TRPV1 potentiator = 2.6; gsp agonist = -27.1%; Sfp PPTase inh = -0.8%; gsp antagonist = u; Menin-MLL FL inh = 3.5
# CCOc1ccccc1N1CCN(C(=O)c2c(-c3ccccc3Cl)noc2C)CC1 is listed with ClpP mod = 1.4%; D2 potentiator = -6.6; TRPV1 potentiator = -7.7; gsp agonist = 7.1%; Sfp PPTase inh = -3.7%; gsp antagonist = -9.4%; Menin-MLL FL inh = 2.8

# Bioassay records: PubChem BioAssay, National Center for Advancing Translational Sciences (NCATS)
